Vaccinia mCherry = inhibitors of vaccinia virus infection (mCherry reporter signal). AID 720579. actives 0.63% (n = 310,000). Potency, µM (series often up to 36.5 µM), without a hit: top-dose activity change, negative = inhibition, hits mostly inhibitors. Vaccinia virus mCherry reporter infection, fluorescence; about a quarter of the inactives have no number; active = well fitted inhibition curve with a large enough effect; inconclusive = small, poorly fitted or top-dose-only effect; inactive = no such curve, though single readings can be large or run the other way; tested in A549 cells; also: nearly all actives have a fitted effect of over 35% in size; inactives centre near -10
Vaccinia Venus = inhibitors of vaccinia virus (Venus reporter) | Vaccinia virus Venus reporter expression, fluorescence | Potency, µM (top dose mostly 36.5 µM), without a hit: at the top dose activity change, negative = inhibition, actives largely listed as inhibitors | actives 0.46% (n = 330,000); active means well fitted inhibition curve with a large enough effect; inconclusive means small, poorly fitted or top-dose-only effect; inactive means no such curve, though single readings can be large or run the other way; tested in A549 cells; also: nearly all actives have a fitted effect of over 30% in size; inactives centre near -10
* marks the source's active call; other numbers are inactive results; i = inactive; ? = inconclusive; · = not tested or not shown; & = joins results of further samples; [ ] = dose if it differs, or a comment. % is scaled to controls: 0 for no effect and ±100 for the full control effect; potency is read from the fitted curve at half-maximal effect.

SMILES	Vaccinia mCherry	Vaccinia Venus
Cc1ccc(S(=O)(=O)NCC2CCC(C(=O)NCc3cccnc3)CC2)cc1 (configuration not stated)	-21%	6%
N#Cc1c(N)nc2c(c1-c1ccc(F)cc1)CCC2	-19%[7.34 µM]	-5%[7.34 µM]
Cc1cc(N2CCN(C)CC2)nc2ccc(NC(=O)Nc3ccccc3Br)cc12	-23%	-17%
CN(C)c1ccc(/C=C/c2ccnc3c(O)cccc23)cc1	10µM*	?
O=C(COC(=O)C1CCC(=O)N1)Nc1ccccc1OC(F)F (configuration not stated)	i	-2%
S=C(NC1CCCCC1)N1CCN(C2CCCCC2)CC1	-5%	-14%
OC(Cn1cccn1)c1ccccc1 (configuration not stated)	-10%	-11%
CCc1ccccc1NS(=O)(=O)c1ccc2nc(-c3ccccc3)[nH]c2c1	-18%	-16%
O=C(NCCc1cccs1)c1ccc(Cn2c(SCc3ccccc3)nc3cccnc32)cc1	i	-9%
O=C(Cc1ccc[nH]c1=O)c1ccc(F)cc1	-14%	-17%
CN1CCN(c2nc3c(c(=O)n(C)c(=O)n3C)n2Cc2ccccc2F)CC1	i	-6%
O=C(Nc1ccc(Cl)cc1)c1ccncc1	-23%	-21%
COC(=O)CNS(=O)(=O)c1ccc(C)cc1	-8%	-5%
COc1ccccc1CNC(=O)c1cnc2c(-c3ccccc3)c(C)nn2c1C	-11%	-8%
CCCCCCCCCCCCCCCC[n+]1cccc(C(=O)N(CC)CC)c1	-24%	-18%
Cn1c(=O)c(=O)n(C)c2cc(N3CCCC3)c(NS(=O)(=O)c3ccc(F)cc3)cc21	-16%	-10%
COc1ccc(N2CCN(C(=O)Cc3ccc(C)cc3)CC2)cc1	-19%	-14%
COC(=O)c1cc(C(=O)CSc2nc(C)cc(C)n2)ccc1O	-15%[1.46 µM]	-17%
Cc1ccc(C)n1-c1ccc(-c2nnc3n2CCCCC3)s1	·	-7%
O=S(=O)(NCCS(=O)(=O)N1CCN(c2ccccc2)CC1)c1ccc(Br)cc1	-8%	-3%
N#C/C(=C\c1c(N2CCCCC2)nc2ccccn2c1=O)C(=O)NC1CCS(=O)(=O)C1 (configuration not stated)	-5%	-19%
O=C(NCCNCc1cccs1)c1ccccc1F	-16%	3%
Cc1cccn2cc(-c3ccccc3)nc12	-13%	-10%
Cc1ccc(N2C(=O)C3C4CC(=O)C(c5ccccc54)C3C2=O)cc1C (configuration not stated)	-18%	-7%
CNc1nc(NC#N)nc(SC)n1	-16%	-3%
CCC(CC)N1CCN(C(=O)Cc2ccccc2)CC1	-7%	0%
COc1ccc(C(C)NC(=O)CCc2ccccc2)cc1 (configuration not stated)	-10%	-1%
COc1ccc(-n2ncc(C(=O)NCCN3CCOCC3)c2C2CCN(C(=O)OC(C)(C)C)CC2)cc1	-12%	-4%
C=CCN1c2ccccc2[C@]23C[C@@H](C(=O)OC)N(C(=O)c4ccc(Br)cc4)C2=NC(C(=O)OC)=C(C(=O)OC)[C@H]13	?	?
Nc1ncnc(Oc2cccc3cccnc23)c1[N+](=O)[O-]	-21%	-6%
Cc1ccc(-n2nnnc2SCC(=O)NCC2CCCO2)cc1C (configuration not stated)	i	-14%
Nc1nc(N)nc(-c2ccccc2O)n1	·	-30%
O=C(NCc1ccccc1)C(c1ccncc1)N(C(=O)c1csnn1)c1cccc(F)c1 (configuration not stated)	?	-11%
Cc1cccc(/C=N/NC(=O)Cc2cccs2)c1	-4%	-17%
CCN1C(=O)[C@H]2[C@@H](c3ccc(Cl)cc3)N3C(=O)CN(CCOC)C(=O)[C@@]3(C)[C@H]2C1=O	-1%	-12%
O=C1CCc2ccc(OCCCCN3CCN(c4cccc(Cl)c4Cl)CC3)cc2N1	?	-28%
CC(C)OC(=O)CN1CCN(S(=O)(=O)c2cc(Cl)ccc2Cl)CC1	·	-22%
COc1ccc(N(CC(=O)NN=C2CCN(C)CC2)S(=O)(=O)c2ccc(NC(C)=O)cc2)cc1	-17%	-7%
COc1ccc(C)cc1NC(=O)c1c(C)oc2ncn(CC(C)C)c(=O)c12	?	-26%
Cc1ccc(COCCN2CCN(S(=O)(=O)c3ccccc3)CCC2=O)cc1	-29%	-12%
O=C(O)CCCN=CC1=C(O)CNC1=O	-4%	-3%
COC(=O)c1ccc(CSc2nnc3n(Cc4ccccc4OC)c(=O)c4ccccc4n23)o1	-10%	-5%
O=S(=O)(NCC(c1cccnc1)N1CCc2ccccc2C1)c1ccccc1 (configuration not stated)	i	-4%
COc1cc(CN2CCCCCC2)cc(OC)c1OC	i	-4%
N#CC(C(=O)NC1CCCCC1)=C1CCCCC1	-9%	-7%
O=C(C1CCN(S(=O)(=O)c2cccc3nonc23)CC1)N1CCN(c2ccccc2F)CC1	-21%	-13%
CCc1ccc(C(=O)COC(=O)CNC(=O)Cc2ccccc2)cc1	-6%	-3%
CCC(C(=O)NCCc1c[nH]c2ccc(C)cc12)c1ccccc1 (configuration not stated)	?	-13%
Cc1ccnc2c(N)cccc12	-8%	0%
COc1ccc(C2CC(c3ccccc3)=NN2C(=O)COC(=O)C2CC2)cc1 (configuration not stated)	-11%	-5%
CCOC(=O)N1CCN(C(=O)CN(c2cccc(C(F)(F)F)c2)S(=O)(=O)c2ccccc2)CC1	i	-16%
CC(C)Oc1ccc(OCCCN2CCCCCC2)cc1	i	-15%
CCC(=O)NCc1c(C)c(C)n(Cc2ccccc2)c1-n1cccc1	-1%	-2%
Cc1ccc(NC(=O)COc2coc(CN3CCc4ccccc4C3)cc2=O)cc1Cl	i	-19%
Cc1cc(C)cc(NC(=S)N2C3CCCC2CC(NC(=O)C2CC2)C3)c1 (configuration not stated)	7%	-6%
O=C(C1CC1)N1CCN(C(c2ccccc2)c2ccccc2)CC1	-3%	-13%
CCC(C)NC(=O)c1cc(-c2cccc(OC)c2)on1 (configuration not stated)	-2%	-2%
CCSc1nc(O)cc(=O)[nH]1	i	-8%
COc1cc2c(cc1OC)C(C)N(C(C)=O)CC2 (configuration not stated)	i	-2%
COc1ccc(CN2CCNC(=O)C2CC(=O)NCCCn2cccn2)cc1C (configuration not stated)	i	-7%

Exported with values under each structure: 7 of the compounds above
Screens in order – Vaccinia mCherry, Vaccinia Venus
- COc1ccc(C2CC(c3ccccc3)=NN2C(=O)COC(=O)C2CC2)cc1 (configuration not stated)
 : -11%, -5%
- CCOC(=O)N1CCN(C(=O)CN(c2cccc(C(F)(F)F)c2)S(=O)(=O)c2ccccc2)CC1
 : i, -16%
- CC(C)Oc1ccc(OCCCN2CCCCCC2)cc1
 : i, -15%
- CCC(=O)NCc1c(C)c(C)n(Cc2ccccc2)c1-n1cccc1
 : -1%, -2%
- Cc1ccc(NC(=O)COc2coc(CN3CCc4ccccc4C3)cc2=O)cc1Cl
 : i, -19%
- Cc1cc(C)cc(NC(=S)N2C3CCCC2CC(NC(=O)C2CC2)C3)c1 (configuration not stated)
 : 7%, -6%
- O=C(C1CC1)N1CCN(C(c2ccccc2)c2ccccc2)CC1
 : -3%, -13%

Some values from the results shown.
Cc1cccc(/C=N/NC(=O)Cc2cccs2)c1 – Vaccinia mCherry = -4%
CCc1ccc(C(=O)COC(=O)CNC(=O)Cc2ccccc2)cc1 – Vaccinia mCherry = -6%
N#Cc1c(N)nc2c(c1-c1ccc(F)cc1)CCC2 – Vaccinia mCherry = -19%[7.34 µM]

The listing continues.
SMILES	Vaccinia mCherry	Vaccinia Venus
C[C@@]12CC(=O)NC1N(C(=O)c1ccccc1)C(c1ccccc1OC(=O)c1ccccc1)C2 (some centres not stated)	-5%	2%
CC(=O)Nc1nonc1-c1nnc(SCC(=O)Nc2ccc(C)cc2C)n1C	6%	-7%
CC(C)Nc1nc2n(c(=O)n1)CCN2C(C)C	-14%	-6%
CCOC(=O)CCNC(=O)N1CCCC(C(=O)c2cc(C)c(OC)c(C)c2)C1 (configuration not stated)	-10%	-10%
COc1ccccc1C(=O)n1nc(-c2ccco2)nc1NCc1ccc(Cl)cc1	-15%	-7%
Cc1cc(Cl)c(S(=O)(=O)N2CCCC2)cc1OCC(N)=O	-16%	-14%
CCn1c(O)c(N=NC(=O)CNC(=O)/C=C/c2ccco2)c2ccccc21	-4%	0%
Cc1cc(NC(=O)COc2nnc(-c3ccccc3)c3ccccc23)no1	-26%	-11%
COc1cc(=O)[nH]c(SC(C)C(=O)Nc2ccc3ccccc3c2)n1 (configuration not stated)	?	8%
O=C(O)c1ccc(N(c2ccccc2)c2ccccc2)cc1	·	-21%
Cc1nn(Cc2ccccc2)c(C)c1C(=O)NCCN1C(=O)S/C(=C\c2ccc(F)cc2)C1=O	-15%	-15%
COc1cccc(N2CCN(C(=O)CCS(=O)(=O)c3ccc4c(c3)CC(=O)N4C)CC2)c1	-8%	3%

Full records, looked up by structure. Screens in order: Vaccinia mCherry, Vaccinia Venus
Cc1cc(Cl)c(S(=O)(=O)N2CCCC2)cc1OCC(N)=O as listed: -16%, -14%
CC(C)Nc1nc2n(c(=O)n1)CCN2C(C)C as listed: -14%, -6%
COc1cc(=O)[nH]c(SC(C)C(=O)Nc2ccc3ccccc3c2)n1 (configuration not stated) as listed: ?, 8%

Going on with the list:
SMILES	Vaccinia mCherry	Vaccinia Venus
O=C(NCC1CCC2(CCN(Cc3cccc(-c4ccco4)c3)CC2)O1)c1ccccc1 (configuration not stated)	-15%	0%
COc1ccc(NC(=O)CN(C)C(=O)c2cc(-c3ccc(Cl)cc3)nc3ccccc23)cc1	-29%	-12%
CCn1c(SCc2ccc(Cl)cc2)nnc1-c1ccccc1	?	-27%
CCc1noc(C)c1C(=O)N1CCCC(C(=O)c2ccc(OC)c(F)c2)C1 (configuration not stated)	-9%	6%
O=c1[nH]c(=S)n(-c2ccccc2F)c(O)c1C=NCc1ccco1	i	-2%
CCN(CC)c1ccc(C2C(C(N)=O)=C(C)Nc3nc(SCc4ccccc4Cl)nn32)cc1 (configuration not stated)	25%	-7%
O=C(COC(=O)/C=C/c1cccc(Br)c1)NC1CCCC1	-9%	-1%
CC1(C(=O)NS(=O)(=O)c2ccc(C#N)cc2)CCN1C(=O)c1ccc(C2CCCCC2)cc1 (configuration not stated)	2%	-5%
Fc1ccc(-c2csc(/C=C/c3ccc4c(c3)OCO4)n2)cc1	-9%	-21%
CCc1ccccc1NC(=O)c1sc2nc(C)cc(COC)c2c1N	-11%	-2%
CN(Cc1cccs1)C(=O)/C=C/c1ccccc1[N+](=O)[O-]	-5%	0%
O=C(O)c1cc(-c2ccc3ccccc3n2)nc2ccccc12	i	-9%
COc1ccc2c(c1OC)C(=O)N(c1ccc(C)c(C)c1)C2=O	-10%	-5%
COc1ccc(CCN2CCCn3c2nc2c3c(=O)n(C)c(=O)n2C)cc1OC	2%	-5%
CC1=C(C(=O)O)CC(S(=O)(=O)O)C1(C)C (configuration not stated)	i	-8%
O=C(O)C(Cc1c[nH]c2ccccc12)N1C(=O)C2C3c4ccccc4C(c4ccccc43)C2C1=O (configuration not stated)	-2%	-5%
CC(=O)N1CCCc2cc(S(=O)(=O)N3CCN(C4CCCCC4)CC3)ccc21	i	-8%
Cn1ccnc1C(=O)C1CCCN(Cc2cn[nH]c2-c2ccc(-c3ccccc3)cc2)C1 (configuration not stated)	-14%	-13%
CC1NC(=O)c2cccnc2-n2c1nc1ccccc1c2=O (configuration not stated)	-16%	-3%
CC(C)(C(=O)O)n1cncn1	5%	3%
COc1ccc(Br)c2c1C(=O)CC2	-12%	3%
CC(=O)OCC1=C(C(=O)O)N2C(=O)C(NC(=O)CSc3ccncc3)[C@@H]2SC1 (some centres not stated)	-3%	1%
Cc1nn(Cc2ccccc2Cl)c(C)c1C(=O)NC1=NCCS1	?	-18%
CCN(C)c1ccc(/C=C/c2ccnc3ccccc23)cc1	58%[activator]	41%[activator]
O=C(O)C[C@H]1c2ccc(C(F)(F)F)cc2S(=O)(=O)N1Cc1ccccc1	-8%&-14%	-8%&-6%
CCOC(=O)c1cccc(NC(=O)NCCc2c(C)nn(C)c2C)c1	-18%	2%
CC[C@@]1(C(=O)OC)N[C@H](CN(C)C(=O)C2CCCCC2)[C@@H]2C(=O)N(C)C(=O)[C@@H]21	-16%	-7%
Cc1cc(C)nc(Nc2nc(C(N)Cc3ccc(Cl)cc3)cs2)n1 (configuration not stated)	?	?
COc1ccccc1N(C)S(=O)(=O)c1ccc(Cl)c(C(=O)OCc2c(C)noc2C)c1	-10%	-26%
O=CNc1ccc2c(c1)Cc1cccc(NC=O)c1-2	i	-4%
CC1(C)CC(=O)C=C(c2ccc(COC(=O)C(c3ccccc3)c3ccccc3)cc2)C1=O	i	-8%
Cc1ccc2c(c1)N(CC(=O)N1CCC(C)CC1)C(=O)c1cccnc1O2	-12%	-8%
COc1ccc(N(CC(=O)NCCSc2ccc(C)cc2)S(=O)(=O)c2ccccc2)c(OC)c1	-22%	-26%
CCOC(=O)c1sc2ncnc(OC)c2c1C	i	-4%
CC(=O)Nc1cc(-c2ccc(S(C)(=O)=O)cc2)cn2c(-c3ccc(F)cc3)cnc12	?	-26%
O=C(CSc1nc(-c2cccs2)nc2cc(=O)[nH]n12)Nc1ccccc1F	-14%	-17%
CCOC(=O)C1=C(C)NC(C)=C(C(=O)OCC)C1C(=O)OCC(=O)NC(C)C	-19%&-12%	-16%&0%

High-throughput results (PubChem BioAssay)
